ClpP mod: qHTS Assay for Activators of ClpP; purified B. subtilis ClpP, FRET peptide cleavage, 20 min; 340,000 tested, 1.9% active; Potency, µM (top dose mostly 57.5 µM), for the others: top-dose activity change, negative = active; AID 651965, 2013; active = well fitted falling curve with a large enough effect; inconclusive = small, poorly fitted or top-dose-only effect; inactive = no such curve, though single readings can be large or run the other way; further: potency means the concentration at half of the fitted maximal effect; the source files actives as falling curves though it sought activators and does not explain the sign; nearly all actives have a fitted effect of over 65% in size; many hits overshoot -100%
Target sequence (P80244 whole entry, looked up): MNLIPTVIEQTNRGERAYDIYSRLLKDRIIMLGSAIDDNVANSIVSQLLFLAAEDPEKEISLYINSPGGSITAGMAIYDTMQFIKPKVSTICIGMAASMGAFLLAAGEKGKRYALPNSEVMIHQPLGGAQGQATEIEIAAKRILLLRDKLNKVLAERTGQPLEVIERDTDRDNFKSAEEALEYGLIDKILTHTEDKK
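FRET quenching reversal measured ClpP activation: 10 microg/mL B. subtilis ClpP at pH 8 with the FRET-FV decapeptide, read at 430 nm after 320 nm excitation. The 20-min minus 0-min signal was scaled between DMSO/no-enzyme wells and ADEP (5.8 microM final).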
TRPV1 PAM: enhances activation of the human vanilloid receptor TRPV1. TRPV1-expressing cells, Fluo-8 calcium influx, capsaicin EC20 potentiation; host cell line not named in the record; control for the full effect not named in the record. potentiation, % at 8.33 µM. 320,000 tested, 0.02% active; active means potentiation above 80%; inconclusive means 30% to 80%; inactive means below 30%; further: 0% is about no effect
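Cells expressing TRPV1 were dye-loaded with Fluo-8 and read kinetically: 10 s baseline, 3 min after compound (agonist portion), then 2 min after EC20 capsaicin (allosteric enhancer portion). Calcium-bound dye fluorescence at 480/520 nm.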
Menin MLL FP FL: displaces fluorescein MLL peptide from human menin. Fluorescence polarization, fluorescein-MLL peptide displacement from menin. FP activity change, % at 61.4 µM. 290,000 tested, under 10 active. AID 1766; inconclusive = falling polarisation curve, or a change in total fluorescence; inactive = total fluorescence flat and polarisation flat or rising; no compound was filed as active; the % refers to the polarisation; negative = inhibition;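 further: % of control where 0% means no effect; inhibitors lower the polarisation; unlabelled MLL peptide was the positive control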
gsp antagonist: antagonists of gsp mutant (McCune-Albright syndrome); gsp-mutant cells, cAMP HTRF, 30 min; control for the full effect not named in the record; Potency, µM (doses to about 76.9 µM), inactives show at the top dose activity change, negative = inhibition, actives largely listed as inhibitors; 340,000 tested, 0.4% active; active = falling curve of any shape with a large fitted effect; inconclusive = falling curve, mostly with a smaller effect; inactive = flat or rising curve; cell line not stated here;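 further: intracellular cAMP measured with PDE inhibitor Ro 20-1724 present during compound exposure; potency means the concentration at half of the fitted maximal effect; on the % scale 0 is the no-effect control and ±100 the full control effect; nearly all actives have a fitted effect of over 65% in size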
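Cells in G418 medium, seeded 16-24 h, 37C; buffer exchange to DPBS + 1 mM CaCl2, 0.5 mM MgCl2, 0.05% BSA; cpds in DMSO + […] (300 uM stock), 30 min 37C; HTRF cAMP detection.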
Sfp inh: Sfp phosphopantetheinyl transferase inhibition; AID 1490; Potency, µM, inactives show max response, negative = inhibition, actives largely listed as inhibitors; Q9F4F7; 310,000 tested, 3.5% active; Biochemical Sfp PPTase activity, qHTS; active means well fitted inhibition curve with a large enough effect; inconclusive means small, poorly fitted or top-dose-only effect, or another doubt; inactive means no such curve, though single readings can be large or run the other way;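 further: the enzyme is Sfp with the accession as filed and its product quenches rhodamine fluorescence; potency means the concentration at half of the fitted maximal effect; 0% = enzyme reaction without inhibitor and -100% = no enzyme wells; top concentration of the series not given in the record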
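With Hepes-Na pH 7.6 buffer containing 10 mM MgCl2, Sfp (15 nM) modified BHQ-2-YbbR (12.5 uM) using rhodamine-CoA (5 uM). Two reads 30 minutes apart at 525/598 nm yielded each well's rate.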
gsp ag: activates gsp, the McCune-Albright syndrome mutation; gsp mutant cells, cAMP HTRF, 30 min; control for the full effect not named in the record; Potency, µM (doses to about 76.9 µM), for inactives: at the top dose activation (cAMP increase), usual class: activators; 340,000 tested, 0.13% active; AID 624287; active = well fitted activation curve with a large enough effect; inconclusive = small, poorly fitted or top-dose-only effect, or another doubt; inactive = no such curve, though single readings can be large or run the other way; cell line not stated here;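 further: phosphodiesterase inhibitor Ro 20-1724 added with compounds to block cAMP breakdown; potency means the concentration at half of the fitted maximal effect; nearly all actives have a fitted effect of over 60% in size; about a fifth of the inactives were tested at one dose only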
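Cells in DMEM/10% FBS with G418 were pretreated with compounds in DMSO plus […] (300 uM stock) for 30 min at 37C. cAMP was measured by HTRF (cAMP-d2 plus anti-cAMP antibody-K) after 30 min at room temperature.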
D2 PAM: potentiates the human D2 dopamine receptor allosterically | P14416 | DiscoveRx D2 beta-arrestin cells, luminescence, 90 min; 100% = 57 uM dopamine signal | potentiation, % (concentration not given with the values) | 360,000 tested, 0.23% active; active = potentiation of 50% or more; inconclusive = 30% to 50%; inactive = 30% or less;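 further: compound concentration not given in the record; tested on top of an EC20 dose of dopamine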
Target sequence (P14416 whole entry, looked up): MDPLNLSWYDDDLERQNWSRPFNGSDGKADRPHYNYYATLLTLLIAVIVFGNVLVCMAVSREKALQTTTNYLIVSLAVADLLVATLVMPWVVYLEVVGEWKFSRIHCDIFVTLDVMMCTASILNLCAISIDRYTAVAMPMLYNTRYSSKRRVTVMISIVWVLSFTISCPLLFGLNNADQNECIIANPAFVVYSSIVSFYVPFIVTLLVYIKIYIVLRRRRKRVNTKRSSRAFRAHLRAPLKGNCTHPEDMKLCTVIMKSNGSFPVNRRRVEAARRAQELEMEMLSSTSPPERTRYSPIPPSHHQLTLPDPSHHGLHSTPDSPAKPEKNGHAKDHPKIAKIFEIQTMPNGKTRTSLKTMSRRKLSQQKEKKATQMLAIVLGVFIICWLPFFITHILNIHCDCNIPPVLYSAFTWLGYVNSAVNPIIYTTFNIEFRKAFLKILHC
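PathHunter beta-arrestin assay in DiscoveRx D2 cells. Compounds were added with an EC20 of dopamine (50 nM final) for 90 min at 37 deg C. Luminescence was read 1 h after detection reagent, with 57 uM dopamine as the EC100 control.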
Numbers without * were called inactive; ? = inconclusive; / = no result given; [ ] = dose if it differs, or a comment.

Values run as follows: ClpP mod, TRPV1 PAM, Menin MLL FP FL, gsp antagonist, Sfp inh, gsp ag, D2 PAM
Cc1c(NC(=O)COC(=O)C2(c3ccccc3F)CCCC2)c(=O)n(-c2ccccc2)n1C
 : /, 0.4, 1.0, -9.7%, -13.1%, -31.6%[inhibitor], 1.5
O=C(NCc1ccccc1C(F)(F)F)C12CN(Cc3ccccc3)CC1C(c1ccc([N+](=O)[O-])cc1)=NO2 (stereo not given)
 : -0.9%, 17.2, -0.9, 6.3%, 2.24µM*, 7.6%, -9.1
CC1(C)OC2OC(COC(=O)c3ccccc3)C3OC(C)(C)OC3C2O1 (stereo not given)
 : 0.7%, -19.8, 2.2, 1.3%, 4.5%, -2.3%[15.4 µM], -14.0
CCC(Oc1ccc(Cl)cc1)C(=O)N1CC(=O)Nc2ccccc21 (stereo not given)
 : -2.0%, -7.1, /, 4.6%, 5.9%, -2.7%, -8.7
Cc1ccc(NC(=O)Nc2ccc3c(c2)CCC3)cc1C
 : 0.2%, 1.9, /, 15.0%, 18.5%, -7.7%, 1.1
Cc1cccc(C)c1NC(=O)CN1CCN(C(=O)CCC(=O)N2CCC(c3ccccc3)=N2)CC1
 : -8.7%, /, /, /, /, -38.6%[inhibitor], -0.1
CC(=O)Nc1cccc(/C(C)=N/NC(=O)c2ccc(NS(=O)(=O)c3cccs3)cc2)c1
 : /, 2.6, 0.4, -2.1%, 20.1%, -6.5%[15.4 µM], -3.6
Cc1ccc(C)c(OCc2nnc(SCC(=O)NCc3ccc4c(c3)OCO4)o2)c1
 : -0.6%, 1.0, -0.5, -9.4%, 19.7%, -6.7%[15.4 µM], -10.9
CCSc1nc2c(c(=O)n1CC)SC(C)C2 (stereo not given)
 : 0.1%, -15.9, 0.7, 8.4%, 10.9%, -5.5%, -11.6
O=C(C=Cc1ccccc1)CC(c1ccccc1)N1CCOCC1 (stereo not given)
 : /, /, /, 10.7%, /, -0.1%, -17.5
CCn1c(=S)sc2c(=O)n(-c3ccccc3)c(SC)nc21
 : 0.6%, 2.7, 5.6, -22.3%, ?, 9.1%, 5.5
CCOCCCNC(=O)CN1C(=O)CSc2ccc(S(=O)(=O)N3CCOCC3)cc21
 : -0.3%, -1.6, -11.0, 16.9%, 10.3%, 43.3%, -5.6
COc1ccc(CNC(=O)c2cccc(N3CCCC3=O)c2)cc1
 : 1.3%, -3.0, -0.6, -10.0%, 6.2%, 10.1%, -20.5
CCCNC(=O)c1ccc(N2CCC3(CC2)CC(c2ccccc2)=NO3)c(NC(=O)c2ccco2)c1
 : ?, -7.1, 0.3, ?, -5.0%, -2.5%, 14.9
CCc1nnc(N2C(=O)c3ccc(Oc4ccc([N+](=O)[O-])cc4)cc3C2=O)s1
 : 1.3%, 1.7, 2.3, 4.9%, 12.8%, -22.4%, -4.6
O=C(NCc1cccnc1)c1ccc(NS(=O)(=O)c2cccc([N+](=O)[O-])c2)cc1
 : 1.0%, /, /, -10.0%, /, -53.4%[inhibitor], -4.1
CN1CCN(c2ccc(NC(=O)COc3ccc4ccccc4c3)cc2)CC1
 : /, -11.0, 2.0, 8.1%, 5.2%, 3.9%, -9.6
COc1cccc(C(=O)N2CCCC(c3nc(-c4cccs4)no3)C2)c1 (stereo not given)
 : 1.1%, ?, 4.5, ?, 10.8%, 29.3%, -1.1
Clc1ccc(-n2ncc3c(N4CCCCCC4)ncnc32)cc1
 : 0.1%, -7.7, 3.3, -5.2%, 0.0%, -24.2%, -8.0
O=C(NCCN1CCOCC1)C(=O)NCc1ccco1
 : -1.3%, 9.9, 0.5, 9.2%, 13.6%, ?, -3.0
Cc1ccc(S(=O)(=O)N2CCC(C(=O)N3CCN(c4ccccn4)CC3)CC2)cc1
 : ?, 10.3, /, 5.1%, 2.4%, -19.0%, -1.2
COc1ccc(C(=O)CSc2nnc(Cn3cnc4ccccc43)o2)cc1
 : 0.4%, 22.4, 3.8, 39.8µM*, 7.9%, -13.3%, 7.1
COc1cc2c(cc1OC)-c1cc(NC3CCCCC3)nc(=O)n1CC2
 : ?, 6.5, 2.0, 10.6%, 7.8%, -27.1%, -11.2
O=C(/C=C/c1ccccc1)NCCC1=CCCCC1
 : 2.0%, -5.9, -0.2, -5.0%, -8.4%, ?, -12.1
Cc1cc(NC(=O)CSc2nc(Cc3ccc(O)cc3)c(C)[nH]2)no1
 : 0.4%, 7.1, -1.4, 16.0%, 0.6%, 10.9%, -9.5
Cc1cn([C@H]2C[C@H](O)[C@@H](CNCc3cnc(N4CCOCC4)s3)O2)c(=O)[nH]c1=O
 : -1.6%, /, /, /, /, 4.0%, 0.3
COc1ccc(Nc2cc(Nc3ccccc3)ncn2)cc1
 : -5.3%, 12.0, 0.0, -1.7%, 7.6%, -1.3%, 1.6
c1ccc(-c2ccncc2)nc1
 : 0.3%, -7.3, /, 8.0%, /, -27.5%, -10.9
COc1ccc2c(c1OC)C(=O)N(C(C)C(=O)O)C2=O (stereo not given)
 : -16.0%, /, 0.1, 5.3%, 0.7%, -24.2%, 3.6
Cc1nc2ccccc2c(=O)n1-c1ccc(NS(=O)(=O)c2ccc(F)cc2F)cc1
 : 0.8%, 4.5, /, -22.2%, /, 17.2%, -29.5
CCn1ncc(Cl)c1C(=O)Nc1ccncc1
 : 0.6%, 1.8, 0.3, 3.6%, -6.2%, 2.3%, -0.8
N#CC1=C2SCCN2C(=O)C(C#N)C12CCCCC2 (stereo not given)
 : -9.1%, 12.9, 5.2, -6.0%, 5.3%, 5.7%, -3.7
COc1cccc(CNC(=O)CN(C)S(=O)(=O)c2cnc[nH]2)c1
 : 1.8%, -1.3, 0.9, 2.0%, 13.1%, 11.8%, -2.7
CCc1ccnc(NS(=O)(=O)c2ccc3c(c2)CCO3)c1
 : -7.7%, 14.7, 2.9, -9.1%, 3.7%, -7.8%, -5.3
O=C(O)c1ccccc1-c1ccccc1C(=O)Nc1ccccc1-c1ccccc1
 : -1.0%, -4.0, -0.4, -2.0%, 10.4%, -19.1%, -9.8
O=C(CSc1nnc(-c2cccnc2)n1Cc1ccco1)N1c2ccccc2Sc2ccccc21
 : 0.3%, 0.8, 7.1, ?, 3.55µM*, 10.8%, -10.4
O=C(Nc1ncc2c(n1)CC(c1ccco1)CC2=O)c1ccco1 (stereo not given)
 : /, -9.2, 3.3, 5.7%, 31.6µM*, -0.1%, 5.5
COc1ccc(CN(C(=O)c2cc3ccccc3oc2=O)C2CCCC2)cc1
 : -2.7%, -15.1, 3.3, ?, 5.9%, -4.1%, -12.7
COc1ccc2c(=O)c3c(=O)n(-c4ccccc4)c(-c4ccco4)nc3oc2c1
 : /, 9.2, 3.9, -0.8%, 5.4%, 0.8%, -1.8
C[C@H](CO)N1C[C@H](C)[C@@H](CN(C)C(=O)Nc2ccc(C(F)(F)F)cc2)Oc2ccc(NC(=O)Cn3cnnn3)cc2C1=O
 : -2.4%, /, /, 6.4%, /, /, 0.7
COC(=O)CSc1nnc(COc2cccc3ccccc23)o1
 : /, -4.9, -0.6, -1.9%, 22.7%, -38.6%[inhibitor], -1.8
C[C@H](CO)N1C[C@H](C)[C@H](CN(C)Cc2ccncc2)Oc2cc(-c3ccccc3F)ccc2S1(=O)=O
 : 0.5%, /, /, /, /, -49.4%[inhibitor], -8.5
O=C(NC1=NCCS1)c1cc(-c2ccc(F)cc2)nc2ccccc12
 : -2.8%, -9.7, 6.3, ?, -1.0%, -4.7%, -6.1
CS(=O)(=O)Nc1ccc(C(=O)Nc2ccc(S(=O)(=O)N3CCCCC3)cc2)cc1
 : -10.9%, -5.9, /, -17.7%, 7.2%, 6.2%[15.4 µM], -6.1
O=C(Nc1ccccc1F)c1ccccc1C(=O)Nc1ccccc1F
 : -0.8%, /, /, -11.0%, /, -12.9%, -6.5
c1ccc(Cn2nnc3c(Nc4ccc5c(c4)OCO5)nc(C4CC4)nc32)cc1
 : /, -11.8, 5.7, 6.0%, 89.1µM*, -4.2%, -8.5
Cc1cc(C)nc(SCc2nnc(SCc3ccc([N+](=O)[O-])cc3)n2Cc2ccco2)n1
 : -6.4%, -13.9, 4.4, -23.4%, -1.3%, ?, 13.4
Cc1cc(C)cc(-n2c(SCC(=O)NCc3ccc4c(c3)OCO4)nc3ccccc3c2=O)c1
 : 1.1%, -3.1, 6.9, 13.3%, -4.6%, 0.6%, -35.2
CCn1c(SCc2ccc(C)cc2)nnc1-c1cnccn1
 : -5.6%, 9.3, 3.1, -7.1%, 4.9%, ?, -9.7
CC(C)(C)c1nnc(NC(=S)Nc2ccccc2)s1
 : /, -3.7, 1.0, -3.9%, 12.8%, -25.0%, -15.7

Further results:
Values run as follows: ClpP mod, TRPV1 PAM, Menin MLL FP FL, gsp antagonist, Sfp inh, gsp ag, D2 PAM
O=C(O)c1cnn(-c2ccccc2)c1-c1ccccc1
 : -0.1%, 16.6, 0.9, 11.4%, 16.0%, -37.2%[inhibitor], -9.8
Cc1noc(C)c1CSc1nnc(-c2cc(Cl)ccc2Cl)n1N
 : 2.6%, 1.4, 3.3, -26.7%, -1.4%, -35.3%[inhibitor], -9.8
COc1ccc(CNC(=O)CN2C(=O)CC(c3ccccc3)=Nc3ccccc32)cc1
 : -0.8%, -25.9, -2.4, -7.3%, -8.3%, -21.5%[15.4 µM], 1.3
O=C(NCc1ccco1)c1ccc(CNc2c(N3CCCCC3)c(=O)c2=O)cc1
 : 1.2%, -7.4, 10.9, 5.1%, 12.7%, 6.3%, 0.4
CCCc1cc(C(=O)Cc2nc3ccccc3s2)c(O)cc1O
 : -9.7%, 25.7, 14.6, -3.7%, 16.5%, 12.8%, -17.6
Cc1ccccc1N1CCN(C(=O)CN2C(=O)c3ccccc3C2=O)CC1
 : -0.3%, -5.5, 1.0, -2.2%, -5.8%, -33.0%[inhibitor], -3.5
CN1CCN(c2nc(NCc3ccco3)nc(N)c2[N+](=O)[O-])CC1
 : /, -9.5, 0.4, 0.5%, 14.2%, 11.1%[15.4 µM], -23.6
N=c1ccn(Cc2cccc(Cl)c2)cc1
 : -2.4%, -2.3, -3.8, 6.9%, 9.2%, ?, -8.6
CCOc1ccc(N(CC(=O)NC(C)CC)S(C)(=O)=O)cc1 (stereo not given)
 : 0.0%, 4.1, 6.8, 11.0%, 2.2%, 2.9%, -20.5
CCN(CC)C(=O)c1[nH]cnc1C(=O)NCc1ccccc1
 : -2.5%, /, /, -3.6%, /, ?, -12.2

Bioassay records as filed in PubChem BioAssay.
